From PubChem
H5N1 antiviral – MDCK cell protection from H5N1 avian flu | 96,000 compounds, 0.07% hits | AID 740, 2007 | cytopathic effect, luminescence, 72 h; active compounds read high; no value below 0 was filed and about half of the inactive calls have no number; reference of the scale not given here | inhibition, % at 50 µM; in the data active means inhibition above about 25%
The depositor's hits bear a star; i = inactive. These rows are one share of the data; the hit share may differ from the screen's.

SMILES | H5N1 antiviral
COC(=O)CSc1nc(-c2ccc(C)cc2)c2c(c1C#N)CCCC2 | 0.9
O=c1[nH]c(CN2CCN(c3ccccc3)CC2)nc2ccccc12 | i
CC1(C)CC(n2c(=S)[nH]c3ccccc3c2=O)CCO1 (configuration not stated) | i
CCC(=O)Nc1ccc(/C(C)=N\NC(=O)c2ccc(C)s2)cc1 | 0.1
CC(C)CN1C(=O)c2ccc(C(=O)Nc3nccs3)cc2C1=O | i
COCCCNCC(=O)Nc1ccc(OC(F)(F)F)cc1 | 0.2
COc1ccc(N2CCN(C(=O)C(Cc3ccccc3)n3cccc3)CC2)cc1 (configuration not stated) | 1.5
COc1ccc(-c2nnc(SCC(=O)N3CCC(Cc4ccccc4)CC3)o2)cc1OC | i
COc1cc(C=O)ccc1OCCOCCOc1c(C)cc(Cl)cc1Cl | i
CN(Cc1ccccc1)C(=O)c1cccc(N2C(=O)NC3CC2(C)Oc2ccccc23)c1 (configuration not stated) | 1.2
Cc1nc(NC(=O)c2cc3c(C)nn(-c4ccccc4)c3s2)sc1C(=O)Nc1ccccc1 | i
COc1ccccc1N1CCN(Cc2ccc(Cl)cc2Cl)CC1 | i
COc1ccc2nc(NC(=O)CSc3nnc(C)s3)sc2c1 | i
COC(=O)c1ccc2[nH]c(C)c(CN3CCCC3)c(=O)c2c1 | 0.2
Cc1ccc(C)c(N2CCN(C(=O)CN3C(=O)c4ccccc4C3=O)CC2)c1 | i
CC1(C)Cc2nc3sc4c(SCC(=O)NC(c5ccccc5)c5ccccc5)ncnc4c3cc2CO1 | 1.6
O=C(CN1C(=O)COc2ccccc21)N(Cc1ccc2c(c1)OCO2)CC1CCCO1 (configuration not stated) | i
Cc1ccc(C)c(NC(=O)CSc2nnc([C@@H](N)Cc3ccccc3)o2)c1 | i
COc1ccc(CCNS(=O)(=O)c2cccc(F)c2)cc1OC | 0.3
Cn1c(=O)c2c(ncn2CC(=O)Nc2nc3ccc(F)cc3s2)n(C)c1=O | i
COC(=O)Oc1nsnc1N1CCOCC1 | i
CCc1cccc(OCCCCNCCOC)c1 | i
O=C1CC(C(=O)O)S/C(=N\NC(=O)c2ccccc2)N1 (configuration not stated) | i
C=CCn1c(SCc2ccccc2)nc(O)cc1=O | 0.8
COc1ccc(C2CC(c3cccs3)n3nc(N)nc3N2)cc1 (configuration not stated) | i

The results go on.
SMILES | H5N1 antiviral
CC1CCCCC12NC(=O)N(CC(=O)NC(=O)NCc1ccco1)C2=O (configuration not stated) | i
O=C(Cc1ccccc1)NCCCN1CCN(CCCNC(=O)Cc2ccccc2)CC1 | 0.2
CC(=O)c1c(C)nn(CCC(=O)O)c1C | 0.8
CCc1ccccc1-n1c(SCC(=O)NC)nnc1-c1cccnc1 | i
O=C(CCn1c(=O)c2ccccc2n(Cc2ccccc2)c1=O)NCc1ccc2c(c1)OCO2 | 0.2
CN(C)CCCNC(=O)c1ccc(-c2ccccc2)cc1 | 0.4
Cc1noc(C)c1COc1cccc(C(=O)NCc2cccc(Cl)c2)c1 | 0.9
CC(=O)Nc1ccc(-c2nnc(SCC(=O)n3c4c(c5ccccc53)CCCC4)n2C)cc1 | 0.3
CC(C)c1nnc(NC(=O)CCC(=O)N2CCN(c3ccccn3)CC2)s1 | 0.7
CC(=O)Nc1c(C(=O)O)oc2ccc(Cl)cc12 | 0.1
COc1ccc(C(C(C(=O)c2cccs2)N2CCOCC2)N2CCOCC2)cc1OC (configuration not stated) | 0.9
COc1ccc2c(=O)cc(C(F)(F)C(F)(F)F)oc2c1 | 0.2
Cc1cccc(NCc2ccccc2O)c1 | i
COc1cc2c(cc1OC)CN(Cc1nc3ccsc3c(=O)[nH]1)CC2 | 1.1
Cc1cnc(NC(=O)CN(C)S(=O)(=O)c2ccc(Cl)cc2)s1 | 0.2
O=S1(=O)N=C(N2CCN(c3ccc(F)cc3)CC2)c2ccccc21 | i
CC1CCN(CCCNC(=O)c2cc3sccc3n2C)CC1 | i
CS(=O)(=O)N(CC(=O)N1CCCCCC1)c1ccccc1 | 0.6
CCOC(=O)N1CCN(C(=O)c2ccc(Cn3c(=S)[nH]c4cc5c(cc4c3=O)OCO5)cc2)CC1 | 2.0
NC(=O)c1ccc(N2CCCCC2)c(N2C(=O)C3C4C=CC(C4)C3C2=O)c1 (configuration not stated) | i
Cc1ccc(-c2csc(NC(=S)NC(=O)/C=C/c3ccco3)n2)cc1 | 0.2
COc1cc(CNn2nnnc2N)cc(Br)c1OCC(=O)NC(C)(C)C | 1.8
Cn1c(=O)oc2cc(S(=O)(=O)N3CCCC(C(=O)N4CCn5c4nc4ccccc45)C3)ccc21 (configuration not stated) | 1.3
COCC(=O)n1nc(NCc2ccc(OC)cc2)nc1NCc1ccc(OC)cc1 | i
O=C(Nc1cc(C(F)(F)F)ccc1N1CCOCC1)c1cn2ccccc2n1 | i

Later entries.
SMILES | H5N1 antiviral
COC(=O)c1sc2ncn(-n3c(C)ccc3C)c(=O)c2c1C | i
Fc1cccc(Cl)c1Cc1noc(/C=C/c2ccccc2)n1 | i
CCCOP(=O)(OCCC)C(Nc1cccc(C(F)(F)F)c1)c1ccc(C)cc1 (configuration not stated) | 1.2
Cc1cc(C)c2cc(C(O)c3nnnn3Cc3ccccc3)c(=O)[nH]c2c1 (configuration not stated) | 0.8
CN(C)C(=C(C#N)C#N)N1CCN(c2ccc(Cl)c(Cl)c2)CC1 | 4.9
C=CCSc1nnc(-c2ccccc2NC(=O)CC)c(=O)[nH]1 | 0.3
C=CCN=C(NC#N)SCC(=O)c1cccc(OC)c1 | 5.0
O=C(O)C1C2C=CC(O2)C1C(=O)Nc1ccccc1C(F)(F)F (configuration not stated) | i
CCN(CC)c1ccc(C2CC(=O)NC3=C2C(=O)CC(C)(C)C3)cc1 (configuration not stated) | 0.3
CC(O)CNc1nc2c(c(=O)n(C)c(=O)n2C)n1CCc1ccccc1 (configuration not stated) | 1.9
CCCn1c(=O)[nH]c(=O)c2c1nc(-c1ccccc1)n2CCN1CCOCC1 | 1.6
CN(c1ccccc1C(=O)Nc1ccc(S(=O)(=O)N2CCCC2)cc1)S(C)(=O)=O | i
COc1ccc(/C=N/n2c(N)nc(-c3ccccc3)c2-c2ccccc2)cc1 | 0.1
O=C1CSC(c2ccccc2)N1c1nc(-c2ccc(Cl)cc2Cl)cs1 (configuration not stated) | 0.1
CCOC(=O)c1cnc(-c2ccccc2)nc1Oc1cccc(Cl)c1 | i
O=C(COC(=O)c1ccc(S(=O)(=O)N2CCOCC2)cc1)NC1CCCCCC1 | 0.8
Cc1noc(/C=C/NCc2cccnc2)c1S(=O)(=O)N(C)CC(=O)N1CCc2ccccc21 | 0.5
COC(=O)CNC(=O)Cc1c(F)cccc1Cl | 0.0
O=C(c1cccs1)N1CCN=C1SCc1cccnc1 | 3.4
CCCCC(=O)Nc1cccc(-c2nn3c(C)nnc3s2)c1 | 3.5
C=CCn1c(SCCOc2ccc(OC)cc2)nnc1C(NC(=O)c1ccc(OC)cc1)C(C)C (configuration not stated) | 0.1
CC1=C(C(=O)Nc2ccccc2)C(c2sccc2C)n2nnnc2N1 (configuration not stated) | 0.2
COc1cc(C(=O)N(Cc2cc3ccccc3[nH]c2=O)CC2CCCO2)cc(OC)c1OC (configuration not stated) | i
COc1cc2c(cc1OC)C(c1cccs1)NCC2 (configuration not stated) | 2.5
COc1ccc(-c2nc(-c3ccccc3)[nH]c(=O)c2C#N)cc1 | i

Further records
SMILES | H5N1 antiviral
Cc1cc(C)n(C(=O)c2ccc(S(=O)(=O)N3CCOCC3)cc2)n1 | i
O=C(NNC(=O)c1ccccc1-n1cccc1)c1cccc(Cl)c1 | 0.3
CC(C)COc1nc2ccccc2nc1C(C#N)C(=O)NC1CCCCC1 (configuration not stated) | i
Cc1nc(-c2cccc(S(=O)(=O)N3CCCC(C)C3)c2)cs1 (configuration not stated) | 0.2
CC1(C)CC(=O)C=C(Nc2cc(-c3ccccc3)[nH]n2)C1 | i
Cc1ccccc1C(=O)NC1CCN(Cc2nnnn2Cc2ccc(F)cc2)CC1 | i
O=C(CC1Sc2ccccc2NC1=O)Nc1cccc(C(=O)O)c1 (configuration not stated) | 0.1
N/C(=N\c1nc2c(c(=O)[nH]1)CCCC2)Nc1ccccc1 | i
CCOC(=O)c1ccc(NC(=O)CN(Cc2ccc(Cl)cc2)S(C)(=O)=O)cc1 | i
CC1(C)CC2CC(C)(CN2C(=O)CCCN2C(=O)c3ccccc3C2=O)C1 (configuration not stated) | 1.1
Cc1cc(C)cc(OCc2nnc(SCC(=O)Nc3ccccc3)o2)c1 | 0.2
N#CC1=C(N)OC2=C(C(=O)CCC2)C1C1C=CCCC1 (configuration not stated) | i
Cc1nc(NCCc2ccc(S(N)(=O)=O)cc2)c2c(C)c(C)sc2n1 | 3.6
CCc1cc2c(=O)c(-c3cnn(-c4ccccc4)c3)coc2c(CN2CCOCC2)c1O | 0.1
COc1ccc(N2C(=O)C3C4C=CC(C5CC45)C3C2=O)c([N+](=O)[O-])c1 (configuration not stated) | 0.6
Clc1ccccc1Sc1cnc2ccccc2n1 | i
COc1ccc(-n2ncc3c(NCc4cccs4)ncnc32)cc1 | i
O=C(Cc1cc(=O)[nH]c(=O)[nH]1)N1CCC(Cc2ccccc2)CC1 | i
O=C(COc1ccc(/C=N/NS(=O)(=O)c2ccccc2)cc1)NCc1ccccc1 | 1.5
Nc1nc(Nc2cccc3ccccc23)nc(C2CCCC2=O)n1 (configuration not stated) | 1.5
COc1nc(Nc2cccc(C(F)(F)F)c2)nc(OC)n1 | i
COc1cc2c3nnc(-c4ccc(F)cc4)c-3cn(Cc3ccc(C)cc3)c2cc1OC | i
O=C(NC12CC3CC(CC(C3)C1)C2)N1CCN(C(=O)C2CCCO2)CC1 (configuration not stated) | i
O=C(COC(=O)c1ccc(S(=O)(=O)Nc2ccccc2)cc1)NCCN1C(=O)CSC1=O | 0.9
COc1cc2c(cc1NC(=O)c1cccc([N+](=O)[O-])c1)oc1ccccc12 | i

Part of the list above, set out differently:
CC(C)COc1nc2ccccc2nc1C(C#N)C(=O)NC1CCCCC1 (configuration not stated)
  H5N1 antiviral: i
Cc1nc(-c2cccc(S(=O)(=O)N3CCCC(C)C3)c2)cs1 (configuration not stated)
  H5N1 antiviral: 0.2
CC1(C)CC(=O)C=C(Nc2cc(-c3ccccc3)[nH]n2)C1
  H5N1 antiviral: i
Cc1ccccc1C(=O)NC1CCN(Cc2nnnn2Cc2ccc(F)cc2)CC1
  H5N1 antiviral: i

Further structures:
SMILES | H5N1 antiviral
CN/S(=N/S(=O)(=O)c1ccccc1)c1ccc(C)cc1 (configuration not stated) | 1.2
COc1ccc2nc(-c3ccccc3)[nH]c2c1 | i
Cc1nnc(N(CCC#N)CCC#N)s1 | i
Cc1ccc(C(=O)Nc2cccc(C(=O)NCc3ccco3)c2)cc1 | i
CC(=O)N1CCN(C(=O)COc2ccc(Br)cc2)CC1 | 0.0
CS(=O)(=O)NCCSc1nnnn1-c1ccccc1 | 0.6
CCOc1ccc(-c2nn(-c3ccccc3)cc2/C=C(\C#N)S(=O)(=O)c2ccccc2)cc1C | i
CC(C)CC(NC(=O)COc1ccccc1)C(=O)O (configuration not stated) | i
CCOc1cc(/C=N/NC(=O)c2ccncc2)ccc1OC(=O)c1ccc([N+](=O)[O-])cc1 | i
CC(=O)C1=C(O)C(=O)N(CCc2c[nH]c3ccccc23)C1c1ccc(O)cc1 (configuration not stated) | 0.1
Nc1cc(=O)[nH]c(SCCNS(=O)(=O)c2ccccc2)n1 | 1.3
CCOC(=O)Cn1cnc2c(cnn2-c2ccc(Cl)cc2)c1=O | i
CCn1nc(C(=O)OCC(=O)c2c[nH]c3ccccc23)c2ccccc2c1=O | 0.3
S=c1[nH]nc(-c2cc(-c3ccco3)[nH]n2)n1-c1ccccc1 | 0.2
O=C(CSc1nc2ccccc2[nH]1)NCCN1CCCCC1 | i
CCCN(S(=O)(=O)c1ccc(OCC)cc1)S(=O)(=O)c1cccs1 | 0.5
CC(C)Nc1nc(N(c2ccccc2)c2ccccc2)nc(-n2ccnc2)n1 | 0.3
COc1ccc(C(=O)CC2OC(=O)c3c2ccc(OC)c3OC)cc1 (configuration not stated) | i
CCC(C(=O)Nc1ccccc1C(=O)N1CCOCC1)N1C(=O)c2ccccc2C1=O (configuration not stated) | i
CC(=O)N=c1sc2ccccc2n1C | i
CCOc1ccc(-c2nn(-c3ccccc3)cc2/C=C2\SC(N)=NC2=O)cc1C | 0.5
Cc1ccccc1CS(=O)(=O)CCC(=O)N1CCN(c2ccc(N3CCOCC3)nn2)CC1 | 0.6
Cc1ccnc(Sc2ccc([N+](=O)[O-])cc2[N+](=O)[O-])n1 | 5.0
O=S(=O)(O)CCN1CCOCC1 | i
O=C1CC(N2CCCN(C3CC(=O)N(c4ccc(F)cc4)C3=O)CC2)C(=O)N1c1ccc(F)cc1 (configuration not stated) | 0.6
CCNC(=O)C1CC(=O)N(CC)C(=Nc2cc(Cl)c(O)c(Cl)c2)S1 (configuration not stated) | 1.0

Of the compounds above, 15 have two or more sulfur atoms.
SMILES | H5N1 antiviral
Cc1nc(NC(=O)c2cc3c(C)nn(-c4ccccc4)c3s2)sc1C(=O)Nc1ccccc1 | i
COc1ccc2nc(NC(=O)CSc3nnc(C)s3)sc2c1 | i
CC1(C)Cc2nc3sc4c(SCC(=O)NC(c5ccccc5)c5ccccc5)ncnc4c3cc2CO1 | 1.6
Cc1cnc(NC(=O)CN(C)S(=O)(=O)c2ccc(Cl)cc2)s1 | 0.2
Cc1ccc(-c2csc(NC(=S)NC(=O)/C=C/c3ccco3)n2)cc1 | 0.2
CN(c1ccccc1C(=O)Nc1ccc(S(=O)(=O)N2CCCC2)cc1)S(C)(=O)=O | i
O=C1CSC(c2ccccc2)N1c1nc(-c2ccc(Cl)cc2Cl)cs1 (configuration not stated) | 0.1
O=C(c1cccs1)N1CCN=C1SCc1cccnc1 | 3.4
Cc1nc(-c2cccc(S(=O)(=O)N3CCCC(C)C3)c2)cs1 (configuration not stated) | 0.2
Cc1nc(NCCc2ccc(S(N)(=O)=O)cc2)c2c(C)c(C)sc2n1 | 3.6
O=C(COC(=O)c1ccc(S(=O)(=O)Nc2ccccc2)cc1)NCCN1C(=O)CSC1=O | 0.9
CN/S(=N/S(=O)(=O)c1ccccc1)c1ccc(C)cc1 (configuration not stated) | 1.2
CS(=O)(=O)NCCSc1nnnn1-c1ccccc1 | 0.6
Nc1cc(=O)[nH]c(SCCNS(=O)(=O)c2ccccc2)n1 | 1.3
CCCN(S(=O)(=O)c1ccc(OCC)cc1)S(=O)(=O)c1cccs1 | 0.5
